Mtb hypoxia rep = PubChem AID 1159583; M. tuberculosis hypoxia-regulated fluorescent reporter, fluorescence; fluorescence inhibition, % (test concentration not listed); 300,000 compounds, 0.1% hits;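 active = 35 to 45% if threefold the growth effect, above 45% if 1.5-fold the growth effect; inactive = the rest, general growth blockers included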;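 note: wells of about 50 µL received 100 nL stock; 0% = vehicle wells and 100% = reference inhibitor wells; whole bacteria with a GFP reporter of the hypoxia response; strong numbers were not always called active; many hits fall short of the cut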
PrP UTR inh = inhibition of PrP 5' UTR reporter expression | 340,000 compounds, 0.35% hits | AID 488862, 2010 | cell-based PrP 5' UTR mRNA reporter, plate reader | inhibition, % (concentration not given with the values);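 active = every replicate at 50% or more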;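 note: 0 = median of the neutral control wells; tested in H4 reporter cells; numbers are from one replicate; inactives centre near -14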
Bead autofluor = compound fluorescence in toxin protease inhibitor counterscreen. compound autofluorescence counterscreen, microsphere flow cytometry; active compounds read high. fluorescence intensity (no concentration beside the values). 360,000 compounds, 3.1% hits;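 active = at least 3 SD above the mean of all compounds, about 16000 in these data; inconclusive = too few beads counted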;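 note: 100 nL of 1 mM stock went into each well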
BJeLR lethal = MLPCN primary cell-based screen for lethality selective to Ras in HRASV12 cells; BJeLR (HRASV12) viability, CellTiter-Glo ATP luminescence, 48 h; reference of the scale not given here; inhibition, % (test concentration not listed); AID 1554, 2009; 300,000 compounds, 0.17% hits;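 active = replicate mean above 50%; inconclusive = above 50% but judged a plate artefact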;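 note: 50 nL library stock added to about 25 µL; numbers are from one replicate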
RN4220 kill = growth inhibition of S. aureus RN4220, primary screen, OD600; 16 h; inhibition, % (test concentration not listed); 330,000 compounds, 0.33% hits; AID 1259311, 2017;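 active = z-score of -3 or lower and OD600 up to 0.18 on both plates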;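 note: plate controls were untreated cells for no effect and reference antibiotic for full effect; stock transfer was 100 nL into about 80 µL; one replicate is shown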
Sa ugtP lethal = growth inhibition of ugtP-null S. aureus, primary screen, RN4220 ugtP deletion, OD600 | 330,000 compounds, 0.54% hits | 16 h; some inactives read as strong as hits | growth inhibition, % (test concentration not listed);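 active = z-score under -3 and OD600 up to 0.15 on both plates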;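 note: plate controls were untreated wells for no effect and antibiotic for full effect; wells of about 80 µL received 100 nL stock; the first replicate is given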
Mtb hypoxia rep growth = further read-out of Mtb hypoxia rep, marked with its call; growth inhibition, %; measured here: M. tuberculosis growth (absorbance);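 0% = vehicle and 100% = reference antibiotic; read after six days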
* marks the source's active call; other numbers are inactive results; u = inconclusive; x = not tested or not shown.

SMILES | Mtb hypoxia rep | Mtb hypoxia rep growth | PrP UTR inh | Bead autofluor | BJeLR lethal | RN4220 kill | Sa ugtP lethal
Cc1oc(-c2cccc(Br)c2)[n+]([O-])c1C | -8 | 2 | -12 | 3418 | -24 | 2.2 | 9
CC(C)CN(CC(C)C)C(=O)CN1c2cccc3cccc(c23)S1(=O)=O | 6 | 5 | -6 | 3509 | -2 | 3.6 | 9
O=S(=O)(CCCc1ccccc1)c1ncn[nH]1 | x | x | -21 | 2201 | x | -5.7 | 3
Cn1c(SCC(=O)Nc2nc(C(C)(C)C)cs2)nnc1C1CC1 | -2 | 14 | 47 | 5204 | 9 | -1.0 | -1
COc1ccccc1CN1CC(C(=O)NCc2nc3ccccc3n2C)CCC1=O (configuration not stated) | 8 | 0 | -18 | 4769 | -11 | 1.7 | 5
O=C(C1=C[C@H](C2CC2)C[C@H](OCCCCO)O1)N1CCN(Cc2ccccc2)CC1 | x | x | -19 | 2949 | 2 | x | x
CCNc1c(NCC)c(=O)c1=O | -7 | 4 | -6 | 4686 | 5 | 2.4 | 3
C=CCn1c(O)c(C(C)=NC(C)c2ccccc2)c(=O)[nH]c1=O (configuration not stated) | 6 | -5 | -7 | 4199 | 6 | -0.2 | 10
COc1cccc(OCCSc2nc(N)cc(N)n2)c1 | x | x | -48 | 3220 | 5 | -0.2 | 12
O=C(NC1CCCCC1)n1c(=O)oc2cc(S(=O)(=O)N3CCCCC3)ccc21 | 12 | 7 | -32 | 7832 | 18 | 1.5 | 4
O=C(Nc1nnc(SCc2ccccc2)s1)c1ccco1 | x | x | -3 | 4285 | 4 | 1.3 | 3
CC1CC(C)(C)CC2(C1)NC(=O)N(CC(=O)N1CCN(S(=O)(=O)c3cccs3)CC1)C2=O (configuration not stated) | 4 | -2 | -16 | 3588 | x | 2.7 | -4
CC(=O)N1CCCN(C(=O)c2ccc3nc(Cc4cccc(Cl)c4)oc3c2)CC1 | 0 | -1 | -11 | 4678 | -12 | 0.3 | -2
COc1ccc(C(=O)NC(C(=O)NCC2(N3CCCCC3)CCCCC2)C(C)C)cc1 (configuration not stated) | -1 | -5 | -2 | 3073 | x | 7.1 | 16
O=C(Nc1ccncc1)c1ccc(Br)cc1 | 2 | 1 | -12 | x | 8 | 3.9 | 15
COc1ccccc1NS(=O)(=O)c1cc(NC(=O)c2ccccc2C)ccc1N1CCOCC1 | 8 | -7 | -6 | x | x | 0.3 | -1
CCc1cc(CN2CCOCC2)c(NC(=O)c2ccccc2)s1 | 2 | 7 | 0 | 3084 | 1 | 17 | 4
CCc1nonc1NC(=O)c1oc2ccc(F)cc2c1C | 2 | 3 | -18 | 5242 | 3 | 0.1 | -2
O=C(CC(NS(=O)(=O)c1ccc(Cl)cc1)c1ccco1)NC1CCCC1 (configuration not stated) | x | x | -11 | 4561 | 1 | 1.1 | -1
Cc1nnc(Nc2ccccn2)c2ccccc12 | x | x | -28 | 2903 | 5 | -0.3 | 0
NC(=O)c1ccc(-c2nnn(CC(=O)Nc3cccc(S(=O)(=O)N4CCCC4)c3)n2)cc1 | -5 | 2 | -22 | u | x | 2.5 | -2
CC(C)(C)OC(=O)N1CCC(NC(=O)c2[nH]cnc2C(=O)NC(Cc2ccccc2)C(=O)OCc2ccccc2)CC1 (configuration not stated) | 0 | -3 | x | x | x | 4.7 | -24
O=C(N/N=C\c1cccc(Br)c1)c1ccccc1-n1cccc1 | x | x | -6 | 4118 | -3 | x | x
CCc1c(C)sc(NC(=S)N2CCN(CC)CC2)c1C(=O)OC | 1 | 28 | 4 | 3311 | 6 | 4.0 | 5
O=c1ccc(S(=O)(=O)N2CCCC2)cn1Cc1nc(-c2ccc(F)cc2)no1 | 14 | -6 | -22 | 57271* | x | 2.0 | -1
O=C(CNS(=O)(=O)c1ccc(Br)s1)N1CCCC1 | x | x | -9 | 2479 | -5 | -1.7 | 8
Cc1ccc(C2Nc3ccccc3NC3=C2C(=O)CC(C)(C)C3)c(O)c1 (configuration not stated) | x | x | -14 | 3606 | -5 | x | x
Cc1ccc(NC(=O)CCC(=O)OCCCC(F)(F)C(F)(F)F)cc1 | x | x | 4 | 2338 | 1 | 3.7 | 4
Nn1c(Cc2ccc(Br)cc2)n[nH]c1=S | 3 | -12 | 38 | 4120 | -2 | -2.3 | -18
CCCC(=O)N(Cc1cc(=O)[nH]c2ccccc12)c1ccccc1OC | 4 | 3 | -12 | 3310 | -9 | 2.1 | 2
C=CCn1c(CCNC(=O)c2ccccc2F)nnc1SCc1nc2ccccc2c(=O)[nH]1 | -5 | 14 | -9 | 24056* | 13 | 4.4 | 6
O=C(COc1cc(F)ccc1[N+](=O)[O-])Nc1ccc(N2CCCCC2)cc1 | 8 | -8 | -4 | u | 4 | 2.9 | 11
O=C(Cn1cc(S(=O)(=O)Cc2cccc([N+](=O)[O-])c2)c2ccccc21)N1CCOCC1 | 12 | 1 | -24 | 5499 | -12 | 1.1 | -1
Cc1cc(C)c(S(=O)(=O)Nc2ccc3c(c2)CCC3)c(C)c1 | 2 | 0 | -4 | 2339 | 2 | 6.7 | 1
CC(C)CNC(=O)CSc1nnc2ccccn12 | -12 | -7 | -42 | 4259 | 7 | 2.4 | 1
O=S(=O)(NC1CC2CCC1C2)c1ccc2c(c1)OCCO2 (configuration not stated) | x | x | -22 | 3203 | 6 | 3.1 | 3
Cc1cc(Br)ccc1NC(=O)CN(C)C(=O)COc1cccc2c1OC(C)(C)C2 | 13 | 6 | -14 | u | -7 | 0.9 | -5
O=C(O)CC/C(=N/NC(=O)c1cn(-c2ccccc2)nc1-c1ccccc1)C(=O)O | x | x | 0 | 2368 | -7 | x | x
CCOC(=O)CC1=NN(c2ccccc2)C(=O)/C1=C\c1ccc(OC)cc1OC | x | x | -25 | 1972 | -5 | x | x
O=C(NCc1cccs1)c1cc(-c2ccc(O)cc2)on1 | 4 | -7 | -51 | 4775 | 5 | 1.1 | -3
CCCSc1nnc(Cn2c(=O)sc3ccccc32)n1C | x | x | -7 | 6055 | -4 | 3.7 | -2
CS(=O)(=O)N1CCN(C(=O)Cc2ccccc2)CC1 | 12 | 15 | -11 | 3271 | 4 | -11 | -2
COc1cccc(CN2CCC(C(=O)Nc3ccc(-c4cccc(C)c4)cc3)CC2)c1O | 14 | 4 | -15 | 5024 | 2 | 4.5 | 11
O=C1C2CC=CCC2C(=O)N1n1cnnc1 (configuration not stated) | -6 | 7 | -25 | 4267 | -19 | 2.4 | -5
COc1cc(/C=C2\S/C(=N/S(=O)(=O)c3ccccc3)NC2=O)c([N+](=O)[O-])cc1OC | 12 | 2 | -32 | 9743 | -4 | -1.2 | 1
CC(C)n1c(C=CC(O)CC(O)CC(=O)O)c(-c2ccc(F)cc2)c2ccccc21 (configuration not stated) | -8 | 3 | x | x | x | 5.7 | -8
NS(=O)(=O)c1ccc(CCNC(=O)CNCCc2ccccc2)cc1 | -5 | 3 | -1 | 3337 | 0 | 1.5 | 3
O=C(Nc1ccccc1C(=O)O)c1cccc(NC(=O)c2ccccc2Cl)c1 | 9 | 2 | -20 | 4486 | -7 | 3.6 | -2
O=C(O)c1cc(NC(=O)C2CCCO2)cc(NC(=O)C2CCCO2)c1 (configuration not stated) | 5 | -2 | -14 | 7169 | 1 | 0.4 | -4
Cc1ccc(C2N(c3ccccn3)C(=O)C3CCCN32)o1 (configuration not stated) | 1 | 2 | -15 | 2466 | 2 | 4.5 | 4
CCOC(=O)Cc1csc(NC(=O)c2c(-c3ccccc3)noc2C)n1 | 5 | 10 | -25 | 10311 | 4 | 3.9 | 9
CCC(CO)NCC(O)COCc1ccc2c(c1)OCO2 (configuration not stated) | 15 | 7 | 2 | 4280 | 7 | -0.2 | -1
O=C(CC1(CC2=NS(=O)(=O)c3ccccc3N2)CCCC1)NCCc1ccccc1 | x | x | -16 | 5753 | 3 | x | x
Cn1nnnc1Sc1ncnc2scc(-c3ccc(C#N)cc3)c12 | 14 | 29 | -11 | 3913 | x | 8.6 | 6
N#Cc1cc2ccccc2nc1SCc1cccnc1 | -1 | 6 | -3 | 14364 | 1 | 3.7 | -12
COc1ccccc1CCNC1CCCC(C)C1 (configuration not stated) | 14 | 7 | -25 | 2572 | 1 | 1.2 | -1
COc1ccccc1OCCNC(=O)CCC(=O)N1CCOCC1 | 2 | 4 | -2 | u | x | 1.5 | 2
O=C(CNc1cccc2ccccc12)N/N=C/c1ccc([N+](=O)[O-])o1 | x | x | -31 | 2098 | -3 | x | x
CC1CCCN(C(=O)c2ccc(N3CC4CC(C3)c3cccc(=O)n3C4)c([N+](=O)[O-])c2)C1 (configuration not stated) | 3 | -3 | -24 | 2217 | 4 | 7.7 | 1
O=C(c1ccccc1)c1cn(CC(=O)N2CCCc3ccccc32)c2ccccc12 | 1 | -2 | -20 | 10702 | -2 | -0.7 | -6

12 of these compounds, reformatted.
structure	Mtb hypoxia rep	Mtb hypoxia rep growth	PrP UTR inh	Bead autofluor	BJeLR lethal	RN4220 kill	Sa ugtP lethal
CC(C)n1c(C=CC(O)CC(O)CC(=O)O)c(-c2ccc(F)cc2)c2ccccc21 (configuration not stated)	-8	3	x	x	x	5.7	-8
NS(=O)(=O)c1ccc(CCNC(=O)CNCCc2ccccc2)cc1	-5	3	-1	3337	0	1.5	3
O=C(Nc1ccccc1C(=O)O)c1cccc(NC(=O)c2ccccc2Cl)c1	9	2	-20	4486	-7	3.6	-2
O=C(O)c1cc(NC(=O)C2CCCO2)cc(NC(=O)C2CCCO2)c1 (configuration not stated)	5	-2	-14	7169	1	0.4	-4
Cc1ccc(C2N(c3ccccn3)C(=O)C3CCCN32)o1 (configuration not stated)	1	2	-15	2466	2	4.5	4
CCOC(=O)Cc1csc(NC(=O)c2c(-c3ccccc3)noc2C)n1	5	10	-25	10311	4	3.9	9
CCC(CO)NCC(O)COCc1ccc2c(c1)OCO2 (configuration not stated)	15	7	2	4280	7	-0.2	-1
O=C(CC1(CC2=NS(=O)(=O)c3ccccc3N2)CCCC1)NCCc1ccccc1	x	x	-16	5753	3	x	x
Cn1nnnc1Sc1ncnc2scc(-c3ccc(C#N)cc3)c12	14	29	-11	3913	x	8.6	6
N#Cc1cc2ccccc2nc1SCc1cccnc1	-1	6	-3	14364	1	3.7	-12
COc1ccccc1CCNC1CCCC(C)C1 (configuration not stated)	14	7	-25	2572	1	1.2	-1
COc1ccccc1OCCNC(=O)CCC(=O)N1CCOCC1	2	4	-2	u	x	1.5	2

The results go on:
SMILES | Mtb hypoxia rep | Mtb hypoxia rep growth | PrP UTR inh | Bead autofluor | BJeLR lethal | RN4220 kill | Sa ugtP lethal
CCOC(=O)c1cc(-c2ccc3c(c2)OCCO3)n[nH]1 | -8 | 13 | 11 | 3343 | 2 | 32 | 1
COc1cccc(Oc2cn[nH]c2-c2ccc(OCC(=O)NN)cc2O)c1 | 17 | -2 | -25 | 4039 | 1 | 1.0 | -1
NNC(=O)c1ccc(Cn2cccn2)o1 | -4 | 3 | -11 | 4038 | -2 | 1.7 | 0
CCOC(=O)c1c(C)n(C)c2ccc(O)c(S(=O)(=O)c3ccccc3)c12 | 5 | 1 | -8 | 24053* | 6 | 13 | 12
CN1C(C(=O)Nc2cccc(O)c2)=CC(c2cccs2)=NS1(=O)=O | 2 | -3 | -21 | 6042 | 2 | 1.3 | 1
O=C(COc1ccccc1)Nc1ccc(-c2nnc(-c3ccco3)o2)cc1 | x | x | -14 | 2413 | 2 | -4.3 | -17
CCCN1C2CCCC1CC(NC(=O)NC1CCCCC1)C2 (configuration not stated) | 2 | 8 | -4 | 9305 | -2 | 0.2 | 2
Cc1c(C(=O)NN=Cc2cccnc2)nnn1-c1nonc1N | 2 | -6 | x | x | x | 2.0 | -1
CCOC(=O)COc1cccc2c(=O)n(CC(N)=O)ccc12 | 8 | 8 | -18 | 4324 | 2 | 1.0 | 6
Cc1ccc(NC(=O)CSc2nc3ccccc3nc2N2CCOCC2)c(C)c1 | 6 | 4 | -36 | 5123 | 16 | 3.6 | -11

Reprinted at random: two entries already listed, in no set order.
SMILES | Mtb hypoxia rep | Mtb hypoxia rep growth | PrP UTR inh | Bead autofluor | BJeLR lethal | RN4220 kill | Sa ugtP lethal
NNC(=O)c1ccc(Cn2cccn2)o1 | -4 | 3 | -11 | 4038 | -2 | 1.7 | 0
COc1cccc(Oc2cn[nH]c2-c2ccc(OCC(=O)NN)cc2O)c1 | 17 | -2 | -25 | 4039 | 1 | 1.0 | -1
